High-throughput results: PubChem, several laboratories
Rce1 inhib: yeast Rce1p protease inhibitors, primary screen, biochemical, fluorescence, cell-free homogeneous | CAAX prenyl protease 2 (Saccharomyces cerevisiae (strain ATCC 204508 / S288c)), Q03530 | yeast membranes, quenched prenylated peptide cleavage fluorescence | calls only | 0.27% of 290,000 active;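 active means fall in fluorescence gain of 50% or more versus controls, with final raw signal at or below 3038400; inconclusive means same 50% fall but final raw signal above 3038400; inactive means fall in fluorescence gain under 50%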;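 further: plate controls were neutral control wells for no effect and wells lacking membranes for full effect; tested at 10 µM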
Target sequence (Q03530 whole entry, looked up): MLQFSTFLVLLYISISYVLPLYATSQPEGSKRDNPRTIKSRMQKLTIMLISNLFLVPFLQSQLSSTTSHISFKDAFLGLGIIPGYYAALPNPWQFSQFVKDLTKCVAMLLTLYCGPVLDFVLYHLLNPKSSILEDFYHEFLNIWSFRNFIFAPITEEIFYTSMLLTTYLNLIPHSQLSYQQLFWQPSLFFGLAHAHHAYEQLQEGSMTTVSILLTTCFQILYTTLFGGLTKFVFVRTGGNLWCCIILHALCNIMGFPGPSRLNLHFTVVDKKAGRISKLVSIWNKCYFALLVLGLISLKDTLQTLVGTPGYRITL
CSC inhib: cancer stem cell viability inhibitors, primary screen, luminescence | cancer stem cell-like cells viability | inhibition, % at 7.5 µM | 1.1% of 300,000 active;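 active means mean at 75% or more and at least half the replicates too; inconclusive means mean and replicates disagree; tested in HMLE shEcad cells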;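 further: 0% = median of negative and 100% = median of positive control wells; the first replicate is given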
HIV Env fusion: inhibitors of HIV-1 Env-driven cell-cell fusion, primary screen, HeLa-JRFL effector, CEM21 target cells, luciferase | AID 651610, 2012 | 1.1% of 360,000 active | inhibition, % at 12.3 µM;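 active means mean replicate inhibition score of at least 50 and every replicate individually at or above 50; inconclusive means only one of the two criteria met; inactive means mean below 50 and not all replicates reaching 50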;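 further: 0% = plate neutral controls and 100% = maraviroc near 300 nM; one replicate is shown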
Yeast UUG start: modulators of yeast start codon fidelity, primary screen, whole organism, S. cerevisiae, single point, plate reader | activity score, % at 18.7 µM | 0.13% of 350,000 active | S. cerevisiae UUG-firefly luciferase reporter, luminescence/redox ratio | AID 602363, 2012;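 active means replicate mean at a twofold rise or more, about +100% in these data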;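 further: firefly luciferase made from a UUG start codon reports start codon fidelity; reporter light over untreated wells divided by growth signal over untreated wells; some hits fall short of that in this replicate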
eIF4H FP inh: human eIF4H binding inhibitors, primary screen, translation initiation inhibitor project, biochemical, uHTS, fluorescence polarization | eIF4H fluorescence polarization binding assay | inhibition, % at 35 µM | 0.94% of 290,000 active;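 active means 50% or more with normal probe brightness, or confirmed in later tests; inconclusive means above 50% with abnormal brightness, or retests that disagree; inactive means below 50% or failed in later tests; about a fifth of its hits are not listed in these tables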;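 further: calls also rest on retests at 20 µM and on dose response follow-up; 0% = protein and probe with vehicle and 100% = probe without protein; strong numbers were not always called active; many hits fall short of the cut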
PABP polyA inh: PABP poly(A) RNA binding inhibitors, primary screen, biochemical, fluorescence polarization, uHTS. Polyadenylate-binding protein 1 (Homo sapiens), P11940. inhibition, % at 35 µM. 1% of 290,000 active;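 active means 50% or more with normal probe brightness, or confirmed in later tests; inconclusive means above 50% with abnormal brightness, or retests that disagree; inactive means below 50% or failed in later tests; about a fifth of its hits are not listed in these tables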;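 further: calls also rest on retests at 20 µM and on dose response follow-up; controls were probe without protein and protein plus probe with vehicle; some compounds called inactive have numbers as strong as hits; many hits fall short of the cut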
MT1-MMP act inh: blockers of MT1-MMP proenzyme processing, primary screen, HT1080 RFP-PRO-GFP cells, GFP/RFP fluorescence. Matrix metalloproteinase-14 (Homo sapiens), P50281. GFP/RFP ratio fluorescence, overnight; percent of plate control window, DMSO zero. GFP/RFP ratio change, % at 20 µM. 0.061% of 360,000 active;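 active means GFP/RFP ratio change of at least 30% with cell ATP level not reduced by more than half and red fluorescence within 50% of control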; further: strong numbers were not always called active
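Read-out: GFP/RFP fluorescence ratio; Test system: RFP-PRO-GFP reporter HT1080 cells; Compound dosing: single-point 20 µM compound, 1% DMSO; Times: overnight compound exposure at 37 °C.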
eIF4H FP inh retest: second read-out of eIF4H FP inh, no call of its own (marks repeat the call); inhibition, %; compound at 20 µM; confirmation average;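 mean of two retest wells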
PABP polyA inh retest: recorded beside PABP polyA inh, whose call it bears; inhibition, %; compound at 20 µM; confirmation repeats;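 mean of two retest wells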
MT1-MMP act inh RFP: recorded beside MT1-MMP act inh, whose call it bears; RFP signal change, %; measured here: RFP expression control read;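 0 = vehicle wells; hits needed this value within 50% of zero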
* marks the source's active call; other numbers are inactive results; i = inactive; u = inconclusive; x = not tested or not shown.

SMILES	Rce1 inhib	CSC inhib	HIV Env fusion	Yeast UUG start	eIF4H FP inh	PABP polyA inh	MT1-MMP act inh	MT1-MMP act inh RFP	others
COCCCNC(=O)CN(c1cccc(Cl)c1C)S(C)(=O)=O	i	3	x	-16	0	-1	1	2
Cc1ccc(SCC(=O)NC(=O)Nc2ccc3c(c2)OCCO3)cc1C	i	0	18	x	3	0	3	3
Cc1ccc(NC(=O)NC(=S)NC(=O)c2ccccc2)cc1	i	-12	-148	2	6	31	-1	8
C[C@H]1[C@H](C)CC[C@]2(C(=O)O)CC[C@]3(C)C(=CC[C@@H]4[C@@]5(C)CC[C@H](O)C(C)(C)[C@@H]5CC[C@]43C)[C@H]12	i	66	7	-13	-11	6	-5	-6
COc1cc(-c2noc(C)c2C#Cc2nccn2C)cc(OC)c1OC	i	39	15	-4	4	-2	1	-2
COc1cc2[nH]c(=O)n(Cc3ccc(C(=O)NC4CCN(Cc5ccccc5)CC4)cc3)c(=O)c2cc1OC	i	-6	1	-9	1	-10	3	0
CCOC(=O)c1c(C)c(C(=O)Nc2ccccc2)c(C)n1CC	i	-6	8	4	-3	-6	0	0
CN(C)S(=O)(=O)c1cccc(NC(=O)c2cncc(Br)c2)c1	i	-3	6	-15	-5	-5	-7	-5
COc1ccc(CN=Cc2c(C(F)(F)F)[nH][nH]c2=O)cc1	i	-16	x	-12	-7	3	8	8
O=C(/C=C/C(=O)NCc1cccs1)NCc1cccs1	i	-9	2	x	0	-1	0	2
Cc1cc(C(=O)NNC(=O)c2ccccc2F)c2ccccc2n1	x	x	-187	18	x	x	-2	1
Cc1ccc(Nc2nc(N)nc(CN3CCN(c4ccccc4)CC3)n2)cc1Cl	i	-20	19	-14	6	-1	-8	-12
O=C(CCN1C(=O)c2ccccc2S1(=O)=O)Nc1cc(Cl)ccc1Cl	i	11	-4	-18	x	x	4	-3
O=C1CC(C(=O)N(CC2CCCO2)C(C(=O)NC2CCCCC2)c2ccncc2)CS1 (stereo unspecified)	i	x	78*	15	-7	-2	11	7
CCNC(=O)CCc1nc(-c2ccc(C)cc2)no1	i	-8	-5	-10	-1	0	-1	-1

Overlap with the part before: 6 entries; new compounds follow.
SMILES	Rce1 inhib	CSC inhib	HIV Env fusion	Yeast UUG start	eIF4H FP inh	PABP polyA inh	MT1-MMP act inh	MT1-MMP act inh RFP	others
O=C(/C=C/C(=O)NCc1cccs1)NCc1cccs1	i	-9	2	x	0	-1	0	2
Cc1cc(C(=O)NNC(=O)c2ccccc2F)c2ccccc2n1	x	x	-187	18	x	x	-2	1
Cc1ccc(Nc2nc(N)nc(CN3CCN(c4ccccc4)CC3)n2)cc1Cl	i	-20	19	-14	6	-1	-8	-12
O=C(CCN1C(=O)c2ccccc2S1(=O)=O)Nc1cc(Cl)ccc1Cl	i	11	-4	-18	x	x	4	-3
O=C1CC(C(=O)N(CC2CCCO2)C(C(=O)NC2CCCCC2)c2ccncc2)CS1 (stereo unspecified)	i	x	78*	15	-7	-2	11	7
CCNC(=O)CCc1nc(-c2ccc(C)cc2)no1	i	-8	-5	-10	-1	0	-1	-1
O=C(/C=C/c1ccc2c(c1)OCO2)NC1CCCC1	i	-14	5	-8	4	7	-2	-6
CCCCc1ccc(N=N/C(C(=O)Nc2cc(OC)c(NC(C)=O)cc2OC)=C(/C)O)cc1	i	18	-2	x	-3	98	10	-1	eIF4H FP inh retest=37;PABP polyA inh retest=49
O=C(O)c1ccc(S(=O)(=O)c2ccc3c(c2)C(=O)N(NC(=O)c2ccc(O)cc2)C3=O)cc1	i	-5	-10	x	-8	3	2	3
O=C(NC1CCCCC1)C(c1ccncc1)N(CC1CCCO1)C(=O)C(F)(F)F (stereo unspecified)	i	-10	-83	-11	3	-5	0	3
O=P(CCc1ccccc1)(c1ccccc1)c1ccccc1	x	x	3	-9	x	x	-2	2
CCN(C(=O)c1nn(-c2ccc(OC)cc2)c(=O)c2c1c1ccccc1n2C)c1ccc(OC)cc1	i	-9	-9	15	-7	-3	-4	-1
Cc1ccc(NC(=S)c2ccc(N(C)C)cc2)cc1	i	27	-94	x	8	11	4	4
O=S(=O)(NCc1ccncc1)c1ccc(S(=O)(=O)NCC2CCCO2)cc1 (stereo unspecified)	i	140*	x	x	-1	0	1	-16
COC(=O)C1=C(C)NC(C)=C(C(=O)OC)C1c1ccc2ccccc2n1	i	-12	-23	-12	-5	7	-1	0
CN(C)c1ccc(/C=N/NC(=O)CNC(=O)/C=C/c2ccccc2)cc1	i	-10	-6	-17	-5	0	0	2
CCCCN(CC)Cc1ccc(CNC(=O)Nc2ccc(OCC)cc2)o1	i	0	x	-17	-4	-1	-6	2
CC(NC(=O)Cn1cnc([N+](=O)[O-])n1)c1ccccc1 (stereo unspecified)	x	-8	-66	-2	-3	-2	2	5
CC(=O)c1ccccc1OCC(O)CN1CCN(C(c2ccccc2)c2ccccc2)CC1 (stereo unspecified)	i	-9	x	-6	-5	-10	-8	1
CCCCNc1oc(-c2ccc(OC)cc2)nc1S(=O)(=O)c1ccccc1	i	-10	x	-11	8	0	-4	1
O=C(Cn1cnc2ccccc21)Nc1ccc(SC(F)F)cc1	i	-7	22	-26	0	2	0	-26
CCN1CCCC1CNC(=O)C(=O)Nc1ccccc1 (stereo unspecified)	i	-9	-22	-1	-5	-8	2	3
COc1cccc(-c2nnc(-c3ccc(C(F)(F)F)cc3)o2)c1OC	i	-7	-134	-6	-2	-9	-1	-2
O=S(=O)(c1ccc2nc(COc3ccccc3)[nH]c2c1)N1CCOCC1	i	x	x	-6	-13	22	6	4
Cc1ccccc1CN1CCN(CC(=O)NCc2ccc3c(c2)OCO3)C1=O	i	-11	10	-16	-16	4	-1	0
Cn1ncc(Cl)c1C(=O)NC1CCCC1	i	-17	6	-16	43	2	-3	2
CCc1nnc(NC(=O)CSc2nc3ccccc3o2)s1	i	-13	-78	-15	1	1	0	5
O=C(NCc1ccccn1)c1cc(-c2ccccc2Cl)on1	i	-9	-71	-16	-3	2	0	2
CCC(C)(C)n1nnnc1C(c1cc2cc3c(cc2[nH]c1=O)OCO3)N1CCN(C)CC1 (stereo unspecified)	u	-6	x	-12	1	-3	1	6
Cc1nnc(SCc2nnc(-c3cccs3)o2)n1C1CCCCC1	i	-7	0	-18	-2	14	2	2
O=C(/C=C/c1cccc2ccccc12)N1CCOCC1	i	x	-102	x	-2	-4	0	2
Cc1sc2nc(CSC(C)C(=O)Nc3ccccn3)[nH]c(=O)c2c1C (stereo unspecified)	x	1	x	-13	x	x	-10	0
CC(C)(CC(=O)O)CC(=O)N1CCN(c2nc3cc(Cl)ccc3s2)CC1	i	-21	x	10	5	7	7	-4
CCCCNC(=O)Cc1c(OC)ccc2cc(Br)ccc12	i	16	7	-13	6	9	-6	-13
O=C(Cc1ccc(NC(=O)C2CCN(C(=O)c3ccccc3)CC2)cc1)Nc1cccc(C(=O)N2CCCCC2)c1	x	x	13	-11	x	x	0	1
O=C(CCC1CC(=O)Nc2ccccc21)NCc1ccc(F)cc1 (stereo unspecified)	i	-9	x	-3	0	1	-4	-3

2 consecutive entries from above, for reference:
SMILES	Rce1 inhib	CSC inhib	HIV Env fusion	Yeast UUG start	eIF4H FP inh	PABP polyA inh	MT1-MMP act inh	MT1-MMP act inh RFP	others
O=C(Cc1ccc(NC(=O)C2CCN(C(=O)c3ccccc3)CC2)cc1)Nc1cccc(C(=O)N2CCCCC2)c1	x	x	13	-11	x	x	0	1
O=C(CCC1CC(=O)Nc2ccccc21)NCc1ccc(F)cc1 (stereo unspecified)	i	-9	x	-3	0	1	-4	-3

By substructure, those above with an NH in an aromatic ring
SMILES	Rce1 inhib	CSC inhib	HIV Env fusion	Yeast UUG start	eIF4H FP inh	PABP polyA inh	MT1-MMP act inh	MT1-MMP act inh RFP	others
COc1cc2[nH]c(=O)n(Cc3ccc(C(=O)NC4CCN(Cc5ccccc5)CC4)cc3)c(=O)c2cc1OC	i	-6	1	-9	1	-10	3	0
COc1ccc(CN=Cc2c(C(F)(F)F)[nH][nH]c2=O)cc1	i	-16	x	-12	-7	3	8	8
O=S(=O)(c1ccc2nc(COc3ccccc3)[nH]c2c1)N1CCOCC1	i	x	x	-6	-13	22	6	4
CCC(C)(C)n1nnnc1C(c1cc2cc3c(cc2[nH]c1=O)OCO3)N1CCN(C)CC1 (stereo unspecified)	u	-6	x	-12	1	-3	1	6
Cc1sc2nc(CSC(C)C(=O)Nc3ccccn3)[nH]c(=O)c2c1C (stereo unspecified)	x	1	x	-13	x	x	-10	0

The results go on.
SMILES	Rce1 inhib	CSC inhib	HIV Env fusion	Yeast UUG start	eIF4H FP inh	PABP polyA inh	MT1-MMP act inh	MT1-MMP act inh RFP	others
O=C(NCc1ccco1)C12CC3CC(C1)CC(C(=O)NCc1ccco1)(C3)C2	i	7	-59	-8	-18	-2	-1	-3
COc1ccccc1CNc1nc(NCCN2CCNC2=O)c2sccc2n1	x	x	19	3	x	x	-4	-4
CCOC(=O)CNC(=O)CN1CCCN(S(=O)(=O)c2ccc(Br)s2)CC1	x	5	-2	4	4	7	-4	-6
CCC(=O)N=c1sc2ccccc2n1-c1ccccc1	i	-4	19	x	3	-1	-2	1
Cc1cccc(C)c1OCC(O)CN1CCCCC1 (stereo unspecified)	i	-5	2	x	1	5	0	-1
Cc1cccc(-c2oc3ccc(-c4ccc5c(c4)OCO5)cc3c2C#Cc2cncn2C)c1	x	95*	-47	-20	x	x	-16	-5
O=C1/C(=C/c2ccsc2)N2CCC1CC2	i	13	7	-28	-5	-8	0	-1
O=C(CSc1nc(Nc2ccccc2)nc(N2CCOCC2)n1)Nc1cccc([N+](=O)[O-])c1	i	-8	50	-7	7	-8	0	-12
CC(C)(C)c1ccc2c(c1)N(CC(=O)N1CCOCC1)C(=O)CO2	i	-10	5	3	0	4	-1	5
Cc1c(C(=O)N(C)C(C)c2ccncn2)oc2c(F)cccc12 (stereo unspecified)	i	-11	-6	0	-8	4	4	2
CCCCCn1c(SCCOCC)nc2c1c(=O)[nH]c(=O)n2C	i	-4	-16	-5	-4	-4	13	6
Cc1nc(NC(=O)c2ccco2)sc1C(=O)O	i	41	-6	-71	0	1	-2	3
COc1cc(C)c(Br)cc1S(=O)(=O)NCc1ccccc1	i	13	x	-14	1	-11	1	0
CS(=O)(=O)N1CC2CCCN2c2cc(C(F)(F)F)ccc21 (stereo unspecified)	i	-12	-8	x	-3	-9	1	4
CCOC(=O)c1c(C)nsc1NC(=O)C1(C)CCN1C(=O)CC (stereo unspecified)	x	x	-6	-9	x	x	0	2
